Assay outcomes (PubChem BioAssay)
A488 fluor: qHTS Assay for Spectroscopic Profiling in A488 Spectral Region. compound autofluorescence, A488 spectral region, dye equivalency; hits give high values. max dye equivalency, M. hit rate 0.1% among 59,000. AID 591, 2007; active = above 10 nM dye equivalent; inconclusive = 1 to 10 nM; inactive = 1 nM or less; about half of its hits are not listed in these tables;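 note: highest value over a series up to 38 µM; compound alone in buffer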
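Spectroscopic profiling in the A488 region: compounds in pH 8.0 Tris (100 mM), 15 min RT, CCD imaging with 480 nm excitation and 540 nm emission; responses normalized against A488 dye standards.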
A647 fluor: qHTS Assay for Spectroscopic Profiling in A647 Spectral Region; max dye-equivalent concentration, M; AID 592, 2007; Compound fluorescence, A647 channel (570/671 nm), Tris buffer; 59,000 tested, under 10 active; active means above 1 µM dye equivalent; inconclusive means 0.1 to 1 µM; inactive means 0.1 µM or less;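 note: values scaled relative to a standard on each plate; highest value over a series up to 38 µM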
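Tris 100 mM pH 8.0; cpd + A647 stds pin-transferred; 15 min RT; CCD imager, ex 570/em 671. Output = A647-equivalent conc. per cpd conc.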
TSHR ag: qHTS Assay for Agonists of the Thyroid Stimulating Hormone Receptor | Thyrotropin receptor (Homo sapiens), P16473 | AID 926, 2007 | HEK293-CNG-TSHR cells (CNG channel as cAMP sensor), membrane potential dye, cAMP | hit rate 0.48% among 73,000 | Potency, µM (highest dose often 57.1 µM), without a hit: at the highest dose activation, usual class: activators; active = well fitted activation curve of enough size with the parental cells flat; inconclusive = any curve in the parental cells; inactive = parental cells flat and receptor cells flat or falling; note: potency is the fitted concentration of half-maximal effect; % of control where 0% means no effect; weak receptor curves with flat parental cells got no call and are not listed
Target sequence (P16473 whole entry, looked up): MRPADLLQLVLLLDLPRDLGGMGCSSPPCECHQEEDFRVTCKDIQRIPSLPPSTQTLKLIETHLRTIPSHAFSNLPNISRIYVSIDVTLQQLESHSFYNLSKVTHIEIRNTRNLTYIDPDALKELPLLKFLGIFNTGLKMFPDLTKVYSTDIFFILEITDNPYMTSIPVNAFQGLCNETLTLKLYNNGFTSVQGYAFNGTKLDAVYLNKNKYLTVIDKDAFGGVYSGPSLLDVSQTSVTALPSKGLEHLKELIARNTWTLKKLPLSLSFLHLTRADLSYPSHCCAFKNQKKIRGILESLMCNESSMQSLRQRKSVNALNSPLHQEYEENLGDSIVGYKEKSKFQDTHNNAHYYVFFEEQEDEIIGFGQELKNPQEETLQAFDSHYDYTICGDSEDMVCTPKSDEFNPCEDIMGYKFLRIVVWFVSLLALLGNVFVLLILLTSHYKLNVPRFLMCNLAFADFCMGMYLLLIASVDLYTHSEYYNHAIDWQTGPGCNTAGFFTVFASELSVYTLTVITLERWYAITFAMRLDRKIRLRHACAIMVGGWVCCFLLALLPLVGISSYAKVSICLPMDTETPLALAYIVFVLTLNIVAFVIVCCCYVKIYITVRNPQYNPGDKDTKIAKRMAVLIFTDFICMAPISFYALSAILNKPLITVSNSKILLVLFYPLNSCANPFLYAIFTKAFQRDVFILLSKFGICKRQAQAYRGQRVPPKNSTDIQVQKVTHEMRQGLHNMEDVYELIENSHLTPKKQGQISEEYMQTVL
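HEK 293 cells stably expressing TSHR and a modified CNG channel, with CNG-only parental cells as counterscreen, were preloaded 60 min at room temperature with membrane potential dye containing 100 uM RO 20-1724. Compound exposure was 30 min, and depolarization was read as fluorescence at 590 nm.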
AID923: qHTS Assay for Allosteric/Competitive Inhibitors of Caspase-1: Spectroscopic Profiling in AFC Spectral Region. compound fluorescence, AFC spectral region (405/520 nm); almost no hit is shown here. Potency, µM (series often up to 57.5 µM), for the others: at the top dose fluorescence increase, actives largely listed as activators. hit rate 1.1% among 75,000; active = well fitted activation curve with a large enough effect; inconclusive = small, poorly fitted or top-dose-only effect;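 note: potency is the fitted concentration of half-maximal effect; 0% is about no effect; scaled to a free AFC standard on each plate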
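Baseline compound fluorescence (AFC region, 405 nm ex/520 nm em) taken from the intercept of kinetic reads with 50 nM caspase-1 and 5 uM Ac-WEHD-AFC; normalized to an on-plate AFC standard curve; compounds titrated up to 57 uM.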
Resorufin autofl: qHTS Assay for Spectroscopic Profiling in Resorufin Spectral Region; Compound fluorescence, resorufin region 547/598 nm, buffer; hits give high values; max dye-equivalent concentration, M; hit rate 0.04% among 59,000; AID 588, 2007; active = above 10 nM dye equivalent; inconclusive = 1 to 10 nM; inactive = 1 nM or less; a few of its hits are not listed in these tables; note: highest value over a series up to 38 µM
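Dye-equivalent concentration values derive from comparing each well's 547/598 nm fluorescence against resorufin standards included on every plate. Incubation was 15 min at room temperature in 100 mM Tris, pH 8.0.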
The depositor's hits bear a star; i = inactive; ? = inconclusive; / = not tested or not shown; [ ] = another dose, or the depositor's remark.

SMILES | A488 fluor | A647 fluor | TSHR ag | AID923 | Resorufin autofl
COC(=O)[C@@]1(C)C=C[C@@H](Cc2ccccc2)N1C | / | / | ? | 6.5% | /
Cc1c(C#N)c(N)c(C(=O)c2ccccc2)n1Cc1ccccc1 | / | / | ? | 3.1% | /
Cn1nc(C(=O)OCC(=O)N2CCc3ccccc32)c2ccccc2c1=O | i | 1e-09 | 1.3% | 0.3% | i
Cn1c(SCc2nc(-c3cccs3)no2)nnc1C1CCCCC1 | i | 7e-09 | ? | 0.4% | i
N#Cc1c(/N=C/c2cccs2)sc2c1CCCCC2 | i | 3.2e-09 | 21.9% | -0.6% | i
CC(C)c1nc(SCc2c(F)cccc2Cl)c2c(=O)n(C)c(=O)n(C)c2n1 | / | / | -2.6% | -0.3% | /
COc1cc2cc(CN(Cc3nnnn3C3CCCC3)C3CCCC3)c(=O)[nH]c2cc1OC | i | 5.62e-08 | 4.3% | -2.9% | i
Cc1ccccc1N(CC(=O)Nc1ccccc1C(=O)O)S(C)(=O)=O | / | / | -9.4% | -1.5% | /
O=C(CSc1nc(O)cc(=O)n1-c1ccccc1)N1CCCCC1 | i | 5.9e-09 | -10.5% | 0.2% | i
Cc1occc1C(=O)Nc1cccc(Cn2cccn2)c1 | i | 1e-09 | -0.3% | -1.5% | i
COc1ccccc1C(=O)Nc1cccc(N(C)S(C)(=O)=O)c1 | i | 3.8e-08 | -3.1% | -2.1% | i
COc1ccccc1N1CCN(CCCCNC(=O)c2ccc(-c3ccc(C(C)=O)cc3)cc2)CC1 | / | / | 10.5% | -0.7% | /
COCCN1Cc2cccc(C(=O)Nc3ccc(S(=O)(=O)N4CCCCCC4)cc3)c2C1=O | i | 3.02e-08 | / | 1.4% | i
COC(=O)c1ccc(C)c(NS(=O)(=O)c2ccc3c(c2)OCCO3)c1 | / | / | ? | 2.3% | /
Cc1nc2cnc(N3CCN(C)CC3)nc2n(CCC#N)c1=O | i | 1.54e-08 | ? | 10.6% | i
N#Cc1c2c(nc(N)c1-c1ccccc1)CCCCC2 | / | / | 8.5% | -1.4% | /
Cc1ccc(-c2nnc(SCC(=O)Nc3nc4c(s3)CCCC4)n2C)cc1 | i | 3.88e-08 | 20.3% | -0.2% | i
CN(CCC#N)CC(=O)Nc1ccc(NC(=O)CN(C)CCC#N)cc1 | i | 1e-09 | 0.9% | -0.5% | i
CCOc1ccc(/C(O)=C2/C(=O)C(=O)N(c3cc(C)on3)C2c2ccc(C(=O)OC)cc2)cc1 (configuration not stated) | i | 1.1e-08 | / | / | i
CCOC(=O)N1CCC(c2cc(=O)n3[nH]c(C)c(-c4ccc(F)cc4)c3n2)CC1 | / | / | 9.4% | -1.4% | /
Cn1c(SCC(=O)NCc2ccco2)nnc1-c1ccc(S(=O)(=O)N2CCOCC2)cc1 | i | 1e-09 | ? | 0.7% | i
Cc1ccc(CCNC(=O)C2CCC(=O)N2C2CCCC2)cc1 (configuration not stated) | i | 6.2e-09 | -6.6% | 0.3% | i
Cc1ccc(S(=O)(=O)N(Cc2nccn2C)C(C)C)cc1 | i | 2e-08 | 25.1µM* | -0.2% | i
O=C(COc1ccccc1)Nc1nc(-c2ccc(S(=O)(=O)N3CCOCC3)cc2)cs1 | i | 4.7e-08 | 22.3% | 0.2% | i
c1ccc(Oc2ccc(-n3cnnn3)cc2)cc1 | / | / | 5.1% | 1.3% | /
Cc1cc(C)c2c(N=CN(C)C)c(C(=O)N3CCN(c4ncccn4)CC3)sc2n1 | i | 4.7e-09 | 7.4% | 1.8% | i
O=S(=O)(N1CCOCC1)N1CCCN(S(=O)(=O)N2CCOCC2)CC1 | i | 1.89e-08 | / | -0.3% | i
CCOC(=O)CNC(=O)c1cn(C)c(=O)c2cc(OC)c(OC)cc12 | i | 2.67e-08 | -1.4% | -0.1% | i
COc1ccc2c(c1)OC(O)(C(F)(F)C(F)F)CC2=O (configuration not stated) | / | / | -0.1% | 0.7% | /
Cn1c(=O)c2ncn(CC(=O)NCCOc3ccccc3)c2n(C)c1=O | i | 8.5e-09 | -11.0% | -0.1% | i

By substructure, the entries above with a halogen.
SMILES | A488 fluor | A647 fluor | TSHR ag | AID923 | Resorufin autofl
CC(C)c1nc(SCc2c(F)cccc2Cl)c2c(=O)n(C)c(=O)n(C)c2n1 | / | / | -2.6% | -0.3% | /
CCOC(=O)N1CCC(c2cc(=O)n3[nH]c(C)c(-c4ccc(F)cc4)c3n2)CC1 | / | / | 9.4% | -1.4% | /
COc1ccc2c(c1)OC(O)(C(F)(F)C(F)F)CC2=O (configuration not stated) | / | / | -0.1% | 0.7% | /

(list continues)
SMILES | A488 fluor | A647 fluor | TSHR ag | AID923 | Resorufin autofl
COC(=O)c1ccc(NC(=O)CSc2nnc(-c3ccncc3)n2N)cc1 | i | 2e-08 | 1.7% | 0.2% | i
CCOc1ccccc1NC(=O)CCCc1nc2ccccc2c(=O)[nH]1 | i | 1.1e-08 | -2.6% | -2.7% | i
O=C(NCC(=O)N(c1ccc2c(c1)OCCO2)C(C(=O)NC1CCCC1)c1ccco1)c1ccco1 (configuration not stated) | i | 2.6e-09 | 4.6% | -1.0% | i
Cc1ccc(C)c(CSc2nnc(CCN)o2)c1 | i | 3.7e-09 | 19.1% | 0.6% | i
O=C(NCCCN1CCOCC1)c1cc(-c2ccc3c(c2)OCO3)nc2ccccc12 | / | / | 26.6% | -1.2% | /
CCC(=O)Nc1nnc(Cc2ccccc2)s1 | i | 1e-09 | -12.1% | 0.5% | i
CCOC(=O)C1CCN(C(=O)CN(c2ccc(OC)cc2)S(=O)(=O)c2c(C)nn(C)c2C)CC1 | / | / | 5.6% | -1.0% | /
CCCc1cc(=O)[nH]c(SCC(=O)N(C)Cc2ccccc2)n1 | i | 1.79e-08 | 2.0% | -1.8% | i
CC1CCCCN1C(=O)c1cc(F)c(F)cc1Cl (configuration not stated) | i | 3.4e-08 | 8.2% | -0.3% | i
CCn1c(COc2ccccc2C)nnc1SCC(=O)Nc1ccc2c(c1)OCCO2 | i | 3.1e-09 | 8.6% | 0.6% | i
O=C(CC(SCCO)c1ccc2c(c1)OCO2)c1ccco1 (configuration not stated) | i | 9e-09 | -5.3% | 1.2% | i
O=C(C1CCC1)N1CCC(c2nc3c(nnn3Cc3c(F)cccc3Cl)c(=O)[nH]2)CC1 | i | 1e-09 | 2.4% | -3.3% | i
C=CCn1c(N)c(C(=O)Nc2ccccc2)c2nc3ccccc3nc21 | i | 3.7e-09 | / | / | i
CCOC(=O)CN1C(=O)C(O)(CC(=O)c2cccc(OC)c2)c2ccccc21 (configuration not stated) | i | 1e-09 | -1.3% | -1.1% | i
O=c1c2ccccc2c(/C=N/c2ncn[nH]2)c(O)n1Cc1ccccc1 | i | 3.13e-08 | 1.3% | 20.4% | i
O=P(O)(O)O[C@@H]1O[C@H](CO)[C@@H](O)[C@H](O)[C@@H]1O | i | 1e-09 | -2.6%[11.4 µM] | 2.2%[11.5 µM] | i
CCSc1nnc(-c2ccccc2NC(C)=O)c(=O)[nH]1 | i | 1.49e-08 | 0.7% | -0.3% | i
CC(C)(C)NC(=O)Cn1cc(C#N)c2cc(Br)ccc21 | i | 1.77e-08 | 8.3% | -0.1% | i
CC1=C(C(=O)NCc2ccco2)C2(CCC(C)CC2)OC1=O (configuration not stated) | / | / | -1.4% | 1.4% | /
Cc1cc(N2CCN(C3CCCCC3)CC2)nc2cccc(O)c12 | / | / | -3.9% | 4.6% | /
Cn1c(Cn2c(=O)sc3ccccc32)nnc1SCc1ccccn1 | i | 2.94e-08 | 2.0% | -1.8% | i
Cc1ccc(C)c(N2CCN(C(=O)CCCn3c(=S)[nH]c4cc5c(cc4c3=O)OCO5)CC2)c1 | i | 1e-09 | ? | 0.6% | i
COc1ccc(CC(=O)n2c(CC#N)nc3ccccc32)cc1OC | i | 7.35e-08 | / | / | i
CCOC(=O)N1CCN(S(=O)(=O)c2c(C)nn(C)c2C)CC1 | i | 1e-09 | 5.2% | 2.5% | i
COc1cccc(NS(=O)(=O)c2ccc3[nH]cc(C(=O)NCCC(C)C)c(=O)c3c2)c1 | i | 1.12e-08 | -15.0% | -0.3% | i
COc1ccc(C(=O)N2CCC3(CCCN(C)C3)CC2)cc1 | i | 1e-09 | 1.7% | 2.4% | i
Cc1ccc(S(=O)(=O)NCCCN2CCOCC2)c(C)c1 | i | 3.26e-08 | 6.1% | -0.3% | i
CN(C)c1ccc(-c2nc(N3CCNCC3)c3ccccc3n2)cc1 | i | 1.5e-09 | ? | -0.1% | i
NC(=O)Nn1c(CCC(=O)O)ccc1-c1ccc(Br)cc1 | i | 1e-09 | / | 2.0% | i
CC(C)c1ccc(OCc2nc(-c3ccccn3)no2)c(Br)c1 | i | 1e-09 | ? | 1.6% | i
Cc1ccc(C)c(Cn2c(=O)c3c(nc4n3CCN4Cc3ccco3)n(C)c2=O)c1 | i | 3e-08 | -3.1% | 1.1% | i
O=C(NC1CCCCCC1)C1CCN(S(=O)(=O)c2cccc3cccnc23)CC1 | / | / | -3.8% | 4.5% | /
Cc1ccc(-c2csc(NC(=O)c3cccc(N4C(=O)CCC4=O)c3)n2)o1 | / | / | ? | -5.7% | /
COc1ccccc1CN(CC(=O)NCc1ccco1)C(=O)CNS(=O)(=O)c1ccc(C)cc1 | i | 7.04e-08 | 20.0% | -0.6% | i
O=P(CCC(F)(F)F)(CCC(F)(F)F)CCC(F)(F)F | / | / | 6.9% | 0.3% | /
COCCNC(=O)C1(CC(C)C)C=CCN1C(=O)c1ccccc1 (configuration not stated) | / | / | 3.4% | -0.9% | /
Cn1nnnc1SCC(=O)Nc1c(Cl)cccc1Cl | i | 1e-09 | -14.3% | -3.5% | i
O=C(Nc1ccc(-c2noc(-c3cccs3)n2)cc1)c1cccnc1 | i | 4.2e-09 | 24.8% | 0.3% | i
O=C(c1ccc(Br)s1)N1CCN(Cc2ccc3c(c2)OCO3)CC1 | i | 1.3e-09 | ? | -0.7% | i
COc1ccc(Cl)cc1S(=O)(=O)n1ccnc1C(C)C | / | / | -3.3% | -0.8% | /
Cn1c(=O)c2cc(S(=O)(=O)Nc3ccc4c(c3)OCO4)ccc2n(C)c1=O | i | 2.28e-08 | 6.7% | 0.8% | i
CCc1cccc2c(C#N)cn(CC(=O)NCc3ccco3)c12 | i | 1.75e-08 | ? | -1.9% | i
CCC(CC)C(=O)N(c1ccc(F)cc1)C1C=CS(=O)(=O)C1 (configuration not stated) | i | 1e-09 | -3.8%[11.4 µM] | 3.6% | i
CCCCNC(=O)CC1N=C2c3ccccc3N=C(SCC(=O)Nc3ccccc3OC)N2C1=O (configuration not stated) | i | 2.23e-08 | 7.1% | -1.3% | i
COCCCNC(=O)CN(c1ccc(OC)cc1)S(=O)(=O)c1ccc(NC(C)=O)cc1 | / | / | 0.4%[11.4 µM] | 0.3% | /
C/C(Cl)=C/Cn1c(SCC(C)C)nc2c1c(=O)[nH]c(=O)n2C | i | 1e-09 | 2.1% | 1.1% | i
Brc1[nH]nc2ccccc12 | i | 1.17e-08 | 0.3% | 1.4% | i
Cn1cccc1CNC(=O)Nc1ccc(Cl)cc1 | i | 1.99e-08 | -7.7% | 0.2% | i

Arranged by SMILES length (rising): part of the list above
SMILES | A488 fluor | A647 fluor | TSHR ag | AID923 | Resorufin autofl
Cn1nnnc1SCC(=O)Nc1c(Cl)cccc1Cl | i | 1e-09 | -14.3% | -3.5% | i
O=P(CCC(F)(F)F)(CCC(F)(F)F)CCC(F)(F)F | / | / | 6.9% | 0.3% | /
COCCNC(=O)C1(CC(C)C)C=CCN1C(=O)c1ccccc1 (configuration not stated) | / | / | 3.4% | -0.9% | /
CCC(CC)C(=O)N(c1ccc(F)cc1)C1C=CS(=O)(=O)C1 (configuration not stated) | i | 1e-09 | -3.8%[11.4 µM] | 3.6% | i

Not all compounds are listed; the hit share may differ from the screen's.
